CSC inhib: cancer stem cell inhibition. inhibition, % at 7.5 µM. 300,000 compounds, 1.1% hits. AID 2717. cancer stem cell-like cells viability, luminescence;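 active = mean at 75% or more and at least half the replicates too; inconclusive = mean and replicates disagree; tested in HMLE shEcad cells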;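 also: 0% = median of negative and 100% = median of positive control wells; the first replicate is given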
PABP FP inh: blocks human PABP binding to poly(A) RNA; AID 2014; fluorescence polarization; P11940; 290,000 compounds, 1% hits; inhibition, % at 35 µM;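 active = 50% or more with normal probe brightness, or confirmed in later tests; inconclusive = above 50% with abnormal brightness, or retests that disagree; inactive = below 50% or failed in later tests; about a fifth of its hits are not listed in these tables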;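 also: calls also rest on retests at 20 µM and on dose response follow-up; controls were probe without protein and protein plus probe with vehicle; some compounds called inactive have numbers as strong as hits; many hits fall short of the cut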
MT1-MMP act inh: MT1-MMP (human) activation inhibition; P50281; HT1080 RFP-PRO-GFP cells, GFP/RFP ratio fluorescence, overnight; percent of plate control window, DMSO zero; GFP/RFP ratio change, % at 20 µM; 360,000 compounds, 0.061% hits; AID 651647;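 active = GFP/RFP ratio change of at least 30% with cell ATP level not reduced by more than half and red fluorescence within 50% of control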; also: strong numbers were not always called active
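Compound: 20 µM single dose, 1% DMSO / System: HT1080 RFP-PRO-GFP cells / Controls: DMSO and RFP-L50D-GFP cell wells / Read-out basis: GFP/RFP fluorescence ratio / Schedule: overnight compound exposure at 37 °C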
Env fusion inh: HIV envelope-mediated fusion inhibition. HeLa-JRFL Env/CEM21 cell fusion, luciferase. inhibition, % at 12.3 µM. 360,000 compounds, 1.1% hits. AID 651610;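 active = mean replicate inhibition score of at least 50 and every replicate individually at or above 50; inconclusive = only one of the two criteria met; inactive = mean below 50 and not all replicates reaching 50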;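 also: 0% = plate neutral controls and 100% = maraviroc near 300 nM; one replicate is shown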
Yeast UUG start: modulators of start codon recognition fidelity in yeast | S. cerevisiae UUG-firefly luciferase reporter, luminescence/redox ratio | activity score, % at 18.7 µM | 350,000 compounds, 0.13% hits | AID 602363;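 active = replicate mean at a twofold rise or more, about +100% in these data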;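 also: firefly luciferase made from a UUG start codon reports start codon fidelity; reporter light over untreated wells divided by growth signal over untreated wells; some hits fall short of that in this replicate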
Rce1 inhib: yeast Ras-converting enzyme inhibition. calls only. AID 2563. 290,000 compounds, 0.27% hits. Q03530. yeast membranes, quenched prenylated peptide cleavage fluorescence;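 active = fall in fluorescence gain of 50% or more versus controls, with final raw signal at or below 3038400; inconclusive = same 50% fall but final raw signal above 3038400; inactive = fall in fluorescence gain under 50%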;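 also: plate controls were neutral control wells for no effect and wells lacking membranes for full effect; tested at 10 µM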
Target sequence (Q03530 whole entry, looked up): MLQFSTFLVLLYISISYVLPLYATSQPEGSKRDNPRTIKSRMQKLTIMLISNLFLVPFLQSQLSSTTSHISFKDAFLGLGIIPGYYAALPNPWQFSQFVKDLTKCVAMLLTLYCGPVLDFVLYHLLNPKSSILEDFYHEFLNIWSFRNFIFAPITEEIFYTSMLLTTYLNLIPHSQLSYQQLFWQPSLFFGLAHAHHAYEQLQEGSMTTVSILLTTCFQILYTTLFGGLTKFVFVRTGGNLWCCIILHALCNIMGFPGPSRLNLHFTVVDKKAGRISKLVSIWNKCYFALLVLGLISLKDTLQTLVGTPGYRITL
eIF4H inh: inhibitors of RNA binding by human eIF4H. AID 2012. eIF4H fluorescence polarization binding assay. inhibition, % at 35 µM. 290,000 compounds, 0.94% hits. Q15056;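 active = 50% or more with normal probe brightness, or confirmed in later tests; inconclusive = above 50% with abnormal brightness, or retests that disagree; inactive = below 50% or failed in later tests; about a fifth of its hits are not listed in these tables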;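 also: calls also rest on retests at 20 µM and on dose response follow-up; 0% = protein and probe with vehicle and 100% = probe without protein; strong numbers were not always called active; many hits fall short of the cut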
eIF4H inh retest: also measured in eIF4H inh; calls as there; inhibition, %; compound at 20 µM; confirmation average;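 mean of two retest wells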
PABP FP inh retest: second read-out of PABP FP inh, no call of its own (marks repeat the call); inhibition, %; compound at 20 µM; confirmation repeats;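 mean of two retest wells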
MT1-MMP act inh RFP: further read-out of MT1-MMP act inh, marked with its call; RFP signal change, %; measured here: RFP expression control read;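 0 = vehicle wells; hits needed this value within 50% of zero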
Starred values were filed as active, the others as inactive; i = inactive; u = inconclusive; x = not tested or not shown.

SMILES | CSC inhib | PABP FP inh | MT1-MMP act inh | MT1-MMP act inh RFP | Env fusion inh | Yeast UUG start | Rce1 inhib | eIF4H inh | others
CC1(C)Cc2cccc(OCC(=O)Nc3ccccc3C(F)(F)F)c2O1 | 29 | 4 | -1 | -1 | 10 | -10 | i | 2
COc1cc(/C=C2\SC(N)=NC2=O)ccc1OCC(=O)Nc1ccc(C)cc1 | 9 | 6 | 16 | 11 | x | x | i | 14
Nc1ccnn1-c1ccccc1 | -4 | 31 | -2 | 0 | 5 | -7 | i | 29
CC(=O)c1ccc(OCc2cc(C(=O)N3CC4C[C@@H]5CC3C[C@H](C4)C5)no2)cc1 | 20 | 9 | 1 | -11 | -54 | 1 | i | 0
Cc1nc2nc(COc3ccccc3)[nH]n2c(=O)c1Cl | 1 | 4 | 2 | -3 | 7 | -14 | i | -5
CC(=O)c1ccc(OCC(=O)c2cc(C)n(-c3ccc4c(c3)OCO4)c2C)cc1 | 1 | 7 | -2 | -14 | 30 | x | i | 2
Cc1nc2ccccc2c2c(N)c3ccccc3n12 | -8 | 1 | 4 | 9 | 0 | x | i | 14
O=C(NCCN1CCOCC1)c1ccccc1Oc1ccccc1 | -7 | 10 | -4 | 5 | x | -11 | i | -6
CN(C)S(=O)(=O)N1CCN(c2ccc([N+](=O)[O-])c(N3CCOCC3)c2)CC1 | -8 | 10 | -2 | -4 | -3 | x | i | -5
CCCCC(CC)CNC(=O)Cn1c(=O)[nH]c2ccsc2c1=O (configuration not stated) | -13 | -12 | 3 | 2 | 9 | x | i | 6

In the list so far, these have an NH in an aromatic ring.
SMILES | CSC inhib | PABP FP inh | MT1-MMP act inh | MT1-MMP act inh RFP | Env fusion inh | Yeast UUG start | Rce1 inhib | eIF4H inh | others
Cc1nc2nc(COc3ccccc3)[nH]n2c(=O)c1Cl | 1 | 4 | 2 | -3 | 7 | -14 | i | -5
CCCCC(CC)CNC(=O)Cn1c(=O)[nH]c2ccsc2c1=O (configuration not stated) | -13 | -12 | 3 | 2 | 9 | x | i | 6

New compounds follow.
SMILES | CSC inhib | PABP FP inh | MT1-MMP act inh | MT1-MMP act inh RFP | Env fusion inh | Yeast UUG start | Rce1 inhib | eIF4H inh | others
C/C(=N/NC(=O)C1CCN(S(=O)(=O)c2ccc(C)cc2)CC1)c1cccc([N+](=O)[O-])c1 | x | 0 | 0 | -1 | x | 8 | i | -2
Cc1ccc(C(=O)OCC(=O)NCc2ccco2)cc1C | -18 | x | -4 | 2 | 1 | -10 | x | x
CCn1c(CCCNC(=O)c2ccc(F)cc2)nc2ccccc21 | -16 | -16 | 1 | 2 | 31 | -14 | i | -12
O=C(CNC(=O)c1cccc(Cl)c1)NCCCSc1ccccc1 | -18 | x | -4 | 1 | -24 | -16 | i | x
O=C(NN=C1C2CC3CC(C2)CC1C3)c1cc(Cl)ccc1O | 5 | -1 | 4 | 2 | x | -17 | i | 18
CC(C)(C)n1ncc2c(=O)n(CC(=O)NCc3ccco3)cnc21 | -1 | 8 | -5 | -2 | x | -18 | i | 2
CCCc1cc(C(=O)Nc2cnn(Cc3ccc(F)cc3)c2)no1 | 51 | 2 | 2 | -2 | 9 | x | i | 0
O=CNc1cc(-c2ccccc2Oc2ccccc2)cn2c(-c3ccc(F)cc3)cnc12 | x | x | -1 | -9 | -45 | -17 | x | x
COc1cccc(C(=O)Nc2ccc(C(F)(F)F)n(C)c2=O)c1 | 9 | -5 | 0 | 3 | -38 | -30 | x | -4
CCOc1ccccc1N1CC(C(=O)N2CCOCC2)CC1=O (configuration not stated) | 0 | 5 | 2 | 4 | -11 | x | i | -6

As a working copy, 3 of the compounds above.
SMILES | CSC inhib | PABP FP inh | MT1-MMP act inh | MT1-MMP act inh RFP | Env fusion inh | Yeast UUG start | Rce1 inhib | eIF4H inh | others
O=CNc1cc(-c2ccccc2Oc2ccccc2)cn2c(-c3ccc(F)cc3)cnc12 | x | x | -1 | -9 | -45 | -17 | x | x
COc1cccc(C(=O)Nc2ccc(C(F)(F)F)n(C)c2=O)c1 | 9 | -5 | 0 | 3 | -38 | -30 | x | -4
CCOc1ccccc1N1CC(C(=O)N2CCOCC2)CC1=O (configuration not stated) | 0 | 5 | 2 | 4 | -11 | x | i | -6

Additional structures follow:
SMILES | CSC inhib | PABP FP inh | MT1-MMP act inh | MT1-MMP act inh RFP | Env fusion inh | Yeast UUG start | Rce1 inhib | eIF4H inh | others
O=C(COC(=O)CNC(=O)c1ccccc1F)Nc1cccc(S(=O)(=O)N2CCCCCC2)c1 | -4 | -6 | 3 | 4 | 4 | x | i | -8
CC(C)(C)NC(=O)C(c1cccs1)N(Cc1cccs1)C(=O)c1ccc(CN2CCOCC2)o1 (configuration not stated) | -12 | 4 | -3 | -2 | 19 | x | i | 2
CC1=CSC2=NC(=O)/C(=C/c3cccc(OC(=O)c4ccco4)c3)C(=N)N12 | -19 | -2 | 3 | 8 | 12 | x | i | 6
COc1ccc(N2CCCn3c2nc2c3c(=O)n(CCN3CCOCC3)c(=O)n2C)cc1 | -5 | -5 | 5 | 11 | x | 1 | i | -4
C=CCOc1c(CNc2cccc(C(=O)O)c2)cccc1OCC | -9 | -1 | -3 | -1 | -34 | -1 | i | 5
Cn1c(=O)c(C(=O)N2CCc3ccccc32)cc2cccnc21 | x | x | 3 | -1 | -7 | -21 | i | x
CSc1nc2ccccc2cc1/C=C(\C#N)c1ccccc1 | 67 | 2 | -16 | -17 | x | -4 | i | -3
CCOC(=O)C1(C)CCN1C(=O)c1ccc(-c2ccccc2)cc1 (configuration not stated) | x | x | -1 | -2 | 14 | -2 | x | x
CC(C)(C)OC(=O)C[C@@H]1C/C=C\C[C@H](CC(=O)N(CCO)Cc2ccccc2)C(=O)N2CCC[C@H]2COC1=O | x | x | 0 | 3 | 2 | -1 | x | x
CCC(=O)c1ccc(OCC(O)CNCCc2ccc(Cl)cc2)cc1 (configuration not stated) | 9 | 2 | -2 | -1 | -1 | -6 | i | -2

Some of these compounds in order of molar mass, highest first.
SMILES | CSC inhib | PABP FP inh | MT1-MMP act inh | MT1-MMP act inh RFP | Env fusion inh | Yeast UUG start | Rce1 inhib | eIF4H inh | others
O=C(COC(=O)CNC(=O)c1ccccc1F)Nc1cccc(S(=O)(=O)N2CCCCCC2)c1 | -4 | -6 | 3 | 4 | 4 | x | i | -8
CCC(=O)c1ccc(OCC(O)CNCCc2ccc(Cl)cc2)cc1 (configuration not stated) | 9 | 2 | -2 | -1 | -1 | -6 | i | -2
CSc1nc2ccccc2cc1/C=C(\C#N)c1ccccc1 | 67 | 2 | -16 | -17 | x | -4 | i | -3

(list continues)
SMILES | CSC inhib | PABP FP inh | MT1-MMP act inh | MT1-MMP act inh RFP | Env fusion inh | Yeast UUG start | Rce1 inhib | eIF4H inh | others
O=C1CC(N2CCC(Cc3ccccc3)CC2)C(=O)N1CCc1ccccc1 (configuration not stated) | -3 | 2 | -2 | -3 | x | x | i | -4
O=C(NCc1ccc(F)cc1)C1CCN(S(=O)(=O)c2cccc3nonc23)CC1 | -15 | 7 | -3 | -3 | -9 | -16 | x | -9
Cc1ccc(C(=O)Oc2cc(N)n(S(=O)(=O)c3ccc(C)cc3)n2)cc1 | -1 | 7 | 7 | 1 | 1 | x | i | 15
O=S(=O)(N1CCCCC1)N1CCN(CC(O)COc2ccc3cc(Br)ccc3c2)CC1 (configuration not stated) | -14 | -1 | -6 | -24 | 63* | 17 | i | -1
CCc1nc2sc3ccccc3c(=O)c2c(=O)n1Cc1ccco1 | 18 | 68* | -12 | 10 | -21 | x | i | 69*
COc1ccc(-n2nc(C(=O)NCC(=O)NCc3ccco3)c3ccccc3c2=O)c(OC)c1 | -1 | -7 | 4 | 6 | -28 | -9 | i | -10
O=S(=O)(NCCC1=CCCCC1)c1ccc(OC(F)(F)F)cc1 | -9 | x | -2 | 0 | -27 | -10 | i | x
Cc1ccc2nc(-c3ccc(C#N)cc3)c(Cc3ccccc3C(F)(F)F)n2c1 | x | x | -8 | -18 | -7 | -11 | x | x
CCOc1ccc(NC(=O)/C=C/c2ccc(OC)cc2)c([N+](=O)[O-])c1 | x | -8 | 2 | -1 | -31 | -6 | i | 75 | eIF4H inh retest=1;PABP FP inh retest=2
O=C(CSc1nnc(-c2ccccc2)c2ccccc12)NCC1CCCO1 (configuration not stated) | x | -2 | 3 | -3 | x | x | i | 2
O=C(O)COc1ccccc1/C=C1\SC(=S)N(NC(=O)c2ccccc2O)C1=O | -4 | x | 10 | 21 | -3 | -10 | i | x
CCc1cccc(NS(=O)(=O)c2ccc3c(c2)oc(=O)n3C)c1 | -1 | 8 | -1 | -8 | 18 | -3 | i | -10
CCN(C[C@H]1N[C@@](Cc2ccccc2)(C(=O)OC)[C@H]2C(=O)N(Cc3ccccc3)C(=O)[C@@H]12)C(=O)NC(C)C | -3 | x | 1 | 1 | -67 | 9 | x | x
CCOCCc1nnc(NC(=O)CN2C(=O)c3ccccc3C2=O)s1 | -3 | 4 | -1 | 1 | -5 | -14 | i | -8
COc1ccccc1NC(=O)CN(Cc1ccco1)C(=O)c1ccc(=O)[nH]c1 | -4 | 0 | 8 | 6 | 1 | -8 | i | 6
O=S(=O)(NCC1CCCO1)c1ccc(Br)s1 (configuration not stated) | -8 | -7 | 1 | -1 | -36 | -6 | x | 0
Cc1ccc(-n2cc[nH]c2=S)c(C)c1 | -9 | u | 2 | 0 | 18 | x | i | -3
CCOc1ccc(C(=O)CN2CCN(S(=O)(=O)c3ccc(OC)cc3)CC2)cc1 | -8 | 8 | 1 | 2 | x | -2 | i | -6
NC(=O)NCc1cccs1 | 3 | 2 | 3 | 6 | 10 | x | i | 10
Cc1cc(=O)oc2cc(NC(=O)c3ccnn3C)ccc12 | 2 | -11 | 4 | 5 | x | -4 | i | 4
CNc1nc(NCc2ccccc2)nc(N)c1[N+](=O)[O-] | -4 | 0 | 4 | 6 | 19 | 10 | i | 1
CC1CCN(C(=O)c2[nH]cnc2C(=O)NCC(=O)OCc2ccccc2)CC1 | 1 | 3 | 0 | 5 | -12 | -12 | i | -7
CCC(=O)c1ccc(OCC(=O)O)cc1 | x | -6 | 1 | 3 | x | x | i | 0
COc1ccc(C(=O)OCc2cc(=O)n3ccsc3n2)cc1F | -9 | x | -6 | 7 | -4 | -15 | x | x
COc1cc(NC(=O)C2CCCO2)c(OC)cc1NC(=O)c1ccccc1 (configuration not stated) | -1 | 1 | 3 | 5 | x | 0 | i | -2
Cc1ccc(NS(=O)(=O)c2cccc(C(=O)N3CCCCC3)c2)cc1 | 5 | x | -1 | -1 | 3 | x | x | x
COC(=O)c1ccc(CSc2nnc(Nc3cccc(OC)c3)s2)o1 | -6 | 5 | 0 | -2 | x | -9 | i | -5
CCOC(=O)c1cc2c(=O)n3cccc(C)c3nc2n(Cc2ccco2)c1=NC(=O)c1cccnc1 | x | 34 | -19 | -8 | x | -6 | x | 26
N#CC1=C(N)OC2=C(CC/C2=C\c2ccc(F)cc2)C1c1ccc(F)cc1 (configuration not stated) | 56 | -11 | x | x | x | x | i | u
CCc1nc2ccccc2c(C(=O)OCc2nc3ccccc3c(=O)[nH]2)c1C | 52 | x | 0 | -11 | -11 | -14 | x | x
CCn1c(SCc2ccc(F)cc2)nc2ccccc2c1=O | 27 | 3 | 6 | 0 | 8 | -5 | i | -15
Cc1cc(C)c2c(N)c(C(=O)c3ccc(Cl)cc3)sc2n1 | 34 | -7 | 5 | 0 | 20 | -14 | i | -7

Screening data deposited in PubChem BioAssay by several laboratories.
